High-throughput results as filed in PubChem BioAssay.
Vaccinia stage – Vaccinia orthopox stage-specific inhibition; AID 1053133; Vaccinia-infected cells, mCherry/Venus stage reporter fluorescence; hits give low values; some inactives read as strong as hits; 89,000 compounds, 0.01% hits; activity change (mCherry), % (concentration not given with the values);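 active = mCherry past -33% and 40 or more points under the early reporter, replicates agreeing; inconclusive = past -33% without that gap or agreement; tested in A549 cells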;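 also: scaled between vehicle wells and reference inhibitor wells; 23 nL library stock went into each well; one replicate is shown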
Vaccinia stage Venus – second read-out of Vaccinia stage, no call of its own (marks repeat the call); activity change (Venus), %; measured here: Venus reporter, other viral stage;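 negative = less Venus signal; first of two replicates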
* = called active by the depositor; ? = inconclusive; · = no result given. The list is partial; rates above refer to the full screens.

SMILES | Vaccinia stage | Vaccinia stage Venus
N#Cc1ccc(-c2ccc([C@H]3[C@@H](CO)N4C(=O)CN(C(=O)C5CCCCC5)C[C@@H]34)cc2)cc1 | -13 | -12
C[C@@H]1CN([C@H](C)CO)C(=O)c2cccc(NC(=O)c3ccc(-c4nccs4)cc3)c2O[C@H]1CN(C)C(=O)Nc1ccc(F)cc1 | 17 | 20
CNC[C@H]1OCCCC[C@@H](C)Oc2ccc(NC(=O)C3CCCCC3)cc2C(=O)N([C@H](C)CO)C[C@@H]1C | -2 | 0
C[C@H](CO)N1C[C@H](C)[C@@H](CN(C)S(=O)(=O)c2ccc(F)cc2)Oc2c(NS(=O)(=O)c3ccccc3)cccc2C1=O | 15 | 18
CO[C@H]1CC[C@H]2CCN(C)C(=O)C[C@H](c3ccccc3)CN(C)C(=O)c3cc(C#N)ccc3OC[C@H]1O2 | 19 | 9
C[C@@H]1CN([C@H](C)CO)C(=O)c2cc(NC(=O)Nc3ccc(F)cc3)ccc2O[C@@H](C)CCCCO[C@H]1CN(C)C(=O)Nc1ccc(F)cc1 | 1 | 6
C[C@@H]1CN([C@H](C)CO)C(=O)c2cccc(NS(=O)(=O)c3cccs3)c2O[C@H]1CN(C)C(=O)Nc1ccc(C(F)(F)F)cc1 | 6 | -3
COCCNC(=O)C[C@@H]1CC[C@H]2[C@H](COc3ccc(NC(=O)COC)cc3C(=O)N2C)O1 | 8 | 5
O=C(C[C@@H]1C=C[C@H](NC(=O)C2CCOCC2)[C@@H](CO)O1)NCCc1cscn1 | 8 | 9
CC(C)NC(=O)Nc1ccc2c(c1)C(=O)N([C@H](C)CO)C[C@H](C)[C@@H](CN(C)C(=O)c1ccccc1)OCCCC[C@H](C)O2 | 9 | 5
C/C=C/c1ccc2c(c1)O[C@H](CN(C)C(=O)NC1CCCCC1)[C@H](C)CN([C@@H](C)CO)S2(=O)=O | 9 | -1
C[C@@H]1CCCCO[C@@H](CN(C)Cc2ccc(Cl)c(Cl)c2)[C@@H](C)CN([C@H](C)CO)C(=O)c2cc(NC(=O)NC3CCCCC3)ccc2O1 | 2 | 3
O=C(C[C@H]1C=C[C@@H](NC(=O)Nc2ccccc2)[C@@H](CO)O1)NCc1ccccn1 | -3 | -7
O=C(N[C@H]1C=C[C@@H](CC(=O)N2CCc3ccccc3C2)O[C@@H]1CO)C1CCOCC1 | 8 | 3
CCNC(=O)C[C@H]1CC[C@H]2[C@@H](COc3ccc(NC(=O)Nc4ccccc4C)cc3C(=O)N2C)O1 | 7 | 5
O=C(Nc1ccccc1F)N[C@@H]1CC[C@H](CCNC(=O)C2CC2)O[C@@H]1CO | 7 | 9
O=C(C1CCC1)N1CC2(C1)[C@H](c1ccccc1)[C@@H](CO)N2Cc1nccs1 | 10 | 9
CC(C)NC(=O)Nc1ccc2c(c1)C(=O)N([C@@H](C)CO)C[C@@H](C)[C@H](CN(C)C(=O)Nc1ccc3c(c1)OCO3)OCCCC[C@@H](C)O2 | 17 | 14
CCCN1[C@H](C(=O)NCC2CC2)[C@@H](CO)[C@@H]2Cn3c(ccc(-c4ccccc4)c3=O)[C@@H]21 | -5 | 8
COc1cccc(NC(=O)N2C[C@H](O)COC[C@@H]3O[C@H](CC(=O)N(C)C)CC[C@H]32)c1 | 3 | 3
C[C@H]1CN([C@@H](C)CO)C(=O)c2cc(C#CCN(C)C)cnc2O[C@@H]1CN(C)Cc1ccccc1 | 20 | 12
C[C@H]1CCCCO[C@H](CN(C)CC2CC2)[C@@H](C)CN([C@@H](C)CO)C(=O)c2cc(NC(=O)CCC(F)(F)F)ccc2O1 | 30 | 17
CN(C)C(=O)c1ccc(-c2ccc([C@@H]3[C@@H](C#N)N(C(=O)C4CCOCC4)[C@H]3CO)cc2)cc1 | -2 | 4
CC(C)C#Cc1cnc2c(c1)C(=O)N([C@H](C)CO)C[C@@H](C)[C@H](CN(C)C(=O)c1ccccc1)O2 | 1 | -2
COc1ccccc1-c1ccc2c(c1)O[C@@H](CN(C)Cc1ccc3c(c1)OCO3)[C@H](C)CN([C@@H](C)CO)S2(=O)=O | -19 | -15
C[C@H](CO)N1C[C@H](C)[C@@H](CN(C)C(=O)C2CC2)Oc2ncc(-c3ccc(C(=O)N(C)C)cc3)cc2C1=O | -5 | -8
CCCNC(=O)Nc1ccc2c(c1)OC[C@H](C)N(S(C)(=O)=O)C[C@@H](C)[C@H](OC)CN(C)C2=O | 4 | 7
C[C@@H]1CCCCO[C@@H](CN(C)C(=O)C2CCCCC2)[C@@H](C)CN([C@H](C)CO)C(=O)c2cc(NC(=O)CCC(F)(F)F)ccc2O1 | -3 | 0
C[C@H](CO)N1C[C@H](C)[C@H](CN(C)S(C)(=O)=O)OCCCC[C@H](C)Oc2ccc(NC(=O)Nc3ccc4c(c3)OCO4)cc2C1=O | 9 | 4
Cc1noc(C)c1NC(=O)N(C)C[C@@H]1Oc2c(NS(=O)(=O)c3cccs3)cccc2C(=O)N([C@@H](C)CO)C[C@@H]1C | -5 | -3
CCCN(C)C[C@@H]1OCCCC[C@@H](C)Oc2ccc(NS(=O)(=O)c3ccc(Cl)cc3)cc2C(=O)N([C@@H](C)CO)C[C@@H]1C | -31 | -25
CC(C)NC(=O)Nc1ccc2c(c1)C(=O)N([C@@H](C)CO)C[C@H](C)[C@H](CN(C)Cc1ccccc1)OCCCC[C@@H](C)O2 | -19 | -10
N#C[C@H]1[C@@H](c2ccccc2C2=CCCCC2)[C@@H](CO)N1S(=O)(=O)c1cccc(F)c1 | -21 | -16
CCCN(C)C[C@H]1OCCCC[C@H](C)Oc2ccc(NC(=O)Nc3ccc4c(c3)OCO4)cc2C(=O)N([C@@H](C)CO)C[C@@H]1C | 3 | 3
CC(C)NC(=O)N1CCCCN2[C@H](C1)[C@H](c1ccc(C#Cc3ccccc3)cc1)[C@@H]2CO | ? | ·
O=C(C[C@H]1C=C[C@H](NC(=O)c2ccc3c(c2)OCO3)[C@H](CO)O1)NC1Cc2ccccc2C1 | 11 | 13
COc1cccc(-c2cnc3c(c2)C(=O)N([C@@H](C)CO)C[C@@H](C)[C@H](CN(C)C(=O)CC2CC2)O3)c1 | 12 | 11
COc1ccc(NC(=O)N(C)C[C@H]2Oc3cc(-c4ccc(C)cc4)ccc3S(=O)(=O)N([C@H](C)CO)C[C@@H]2C)cc1 | -34 | -23
C[C@H](CO)N1C[C@H](C)[C@H](CN(C)C(=O)Nc2cccc(Cl)c2Cl)OCc2ccccc2-c2ccccc2C1=O | -33 | -29
COc1ccccc1-c1cnc2c(c1)C(=O)N([C@@H](C)CO)C[C@H](C)[C@@H](CN(C)C(C)=O)O2 | 19 | 8
COc1ccc(NC(=O)N(C)C[C@H]2OCCCC[C@H](C)Oc3ccc(NC(=O)Nc4ccc(F)cc4)cc3C(=O)N([C@H](C)CO)C[C@@H]2C)cc1 | 10 | 10
O=C(C[C@@H]1CC[C@@H]2[C@H](COC[C@@H](O)CN2S(=O)(=O)c2cccc(Cl)c2)O1)Nc1ccc(-c2ccccc2)cc1 | ? | ·
CCCC(=O)Nc1ccc2c(c1)C(=O)N(C)C[C@H](OC)[C@@H](C)CN(Cc1ccccn1)[C@@H](C)CO2 | -2 | -2
Cc1ccccc1-c1ccc([C@H]2[C@H]3CN(C(=O)NC4CCCC4)CCCCN3[C@H]2CO)cc1 | ? | ·
CC(C)NC(=O)Nc1ccc2c(c1)C(=O)N([C@H](C)CO)C[C@@H](C)[C@H](CN(C)C)OCCCC[C@@H](C)O2 | 24 | 11

Taken from the listing (seven entries):
SMILES | Vaccinia stage | Vaccinia stage Venus
CC(C)NC(=O)Nc1ccc2c(c1)C(=O)N([C@@H](C)CO)C[C@H](C)[C@H](CN(C)Cc1ccccc1)OCCCC[C@@H](C)O2 | -19 | -10
N#C[C@H]1[C@@H](c2ccccc2C2=CCCCC2)[C@@H](CO)N1S(=O)(=O)c1cccc(F)c1 | -21 | -16
CCCN(C)C[C@H]1OCCCC[C@H](C)Oc2ccc(NC(=O)Nc3ccc4c(c3)OCO4)cc2C(=O)N([C@@H](C)CO)C[C@@H]1C | 3 | 3
CC(C)NC(=O)N1CCCCN2[C@H](C1)[C@H](c1ccc(C#Cc3ccccc3)cc1)[C@@H]2CO | ? | ·
O=C(C[C@H]1C=C[C@H](NC(=O)c2ccc3c(c2)OCO3)[C@H](CO)O1)NC1Cc2ccccc2C1 | 11 | 13
COc1cccc(-c2cnc3c(c2)C(=O)N([C@@H](C)CO)C[C@@H](C)[C@H](CN(C)C(=O)CC2CC2)O3)c1 | 12 | 11
COc1ccc(NC(=O)N(C)C[C@H]2Oc3cc(-c4ccc(C)cc4)ccc3S(=O)(=O)N([C@H](C)CO)C[C@@H]2C)cc1 | -34 | -23

More compounds:
SMILES | Vaccinia stage | Vaccinia stage Venus
O=S(=O)(c1ccc(F)cc1)N1CC[C@@H]2[C@@H](CO)Nc3ccc(C#Cc4cccc(F)c4)cc3[C@@H]21 | 5 | 8
CN1[C@@H]2Cn3c(ccc(-c4ccc(F)cc4)c3=O)[C@H]1[C@@H](C(=O)NC1CCCC1)[C@@H]2CO | 4 | 6
COc1ccc2c3c([nH]c2c1)[C@H](CO)N(Cc1ccccc1)CC31CN(C(=O)Nc2cccc(F)c2)C1 | 5 | 6
C[C@@H]1CCCCO[C@H](CN(C)C(=O)Nc2ccc(C(F)(F)F)cc2)[C@H](C)CN([C@@H](C)CO)C(=O)c2cc(NS(=O)(=O)c3ccc(F)cc3)ccc2O1 | -31 | -14
COCCCNC(=O)[C@@]1(Cc2ccccc2)N=C(c2ccc(OCCCO)cc2)O[C@H]1c1ccccc1 | -11 | 2
O=C(C[C@H]1CC[C@H]2[C@@H](COC[C@@H](O)CN2C(=O)Nc2cc(Cl)cc(Cl)c2)O1)NCC1CC1 | -31 | -14
COc1ccc2c3c(n(C)c2c1)[C@H](CO)N(S(C)(=O)=O)CC31CCN(Cc2cccnc2)CC1 | 16 | 9
O=C(C[C@@H]1CC[C@H](NC(=O)c2cccnc2)[C@H](CO)O1)NCc1ccc(Cl)c(Cl)c1 | 1 | 4
O=C(NC1CCCC1)N1CC(=O)N2[C@H](CO)[C@@H](c3ccc(/C=C/c4ccccc4)cc3)[C@H]2C1 | -27 | -33
COc1ccc(NC(=O)N(C)C[C@@H]2OCCCC[C@H](C)Oc3ccc(NS(=O)(=O)c4ccccc4)cc3C(=O)N([C@@H](C)CO)C[C@@H]2C)cc1 | -14 | -16
C[C@H](CO)N1C[C@H](C)[C@H](CN(C)C(=O)Nc2ccc(C(F)(F)F)cc2)Oc2ccc(NS(=O)(=O)c3ccc(Cl)cc3)cc2CC1=O | -24 | -14
CN1C(=O)c2cc(NC(=O)c3cccc(F)c3)ccc2OC[C@H]2O[C@@H](CC(=O)Nc3ccccc3)CC[C@H]21 | ? | ·
COc1ccc2c3c([nH]c2c1)[C@@H](CO)N(C(=O)CN1CCOCC1)CC31CN(Cc2ccccc2)C1 | -3 | -4
C=CC[C@]1(C(=O)NCc2ccccc2)N=C(c2ccc(OCCCO)cc2)O[C@H]1c1ccccc1 | ? | ·
CC(C)NC(=O)N(C)C[C@@H]1Oc2cc(-c3cccnc3)ccc2S(=O)(=O)N([C@@H](C)CO)C[C@@H]1C | 22 | 10

Pulled by structure from above (2):
SMILES | Vaccinia stage | Vaccinia stage Venus
O=S(=O)(c1ccc(F)cc1)N1CC[C@@H]2[C@@H](CO)Nc3ccc(C#Cc4cccc(F)c4)cc3[C@@H]21 | 5 | 8
COc1ccc2c3c([nH]c2c1)[C@@H](CO)N(C(=O)CN1CCOCC1)CC31CN(Cc2ccccc2)C1 | -3 | -4

Remaining list, next part:
SMILES | Vaccinia stage | Vaccinia stage Venus
C/C=C/c1ccc2c(c1)O[C@H](CN(C)C(=O)Nc1cccc(F)c1)[C@@H](C)CN([C@@H](C)CO)S2(=O)=O | ? | ·
CO[C@H]1CN(C)C(=O)c2cc(NC(=O)Nc3cc(F)ccc3F)ccc2OC[C@@H](C)NC[C@H]1C | -15 | -1
CO[C@@H]1CN(C)C(=O)c2cc(NC(=O)c3ccc4c(c3)OCO4)ccc2OC[C@@H](C)N(CC2CC2)C[C@@H]1C | -12 | -7
CC(C)NC(=O)N(C)C[C@H]1OCCCC[C@@H](C)Oc2ccc(NC(=O)Nc3cccc4ccccc34)cc2C(=O)N([C@@H](C)CO)C[C@H]1C | 12 | 10
CCO[C@H]1OC(C(=O)NCc2nc3ccccc3[nH]2)=C[C@@H](c2ccc(C(F)(F)F)cc2)[C@@H]1CCCO | -23 | -15
C[C@@H]1CN([C@H](C)CO)C(=O)Cc2cc(N(C)C)ccc2O[C@H]1CN(C)S(=O)(=O)c1cccs1 | 2 | 4
COc1cccc(NC(=O)N[C@H]2CC[C@H](CC(=O)NCc3ccccn3)O[C@@H]2CO)c1 | -4 | -4
NCC[C@@H]1CC[C@@H](NC(=O)C2CC2)[C@@H](CO)O1 | 15 | 7
C[C@H](CO)N1C[C@H](C)[C@H](CN(C)C(=O)Nc2ccccc2)Oc2ccc(NS(=O)(=O)c3ccc(F)cc3)cc2C1=O | 9 | 11
C[C@@H]1CN([C@H](C)CO)C(=O)c2cc(NS(=O)(=O)c3ccccc3)ccc2O[C@H]1CN(C)C(=O)NC1CCCCC1 | 10 | 6
COc1ccccc1CNC(=O)C[C@@H]1CC[C@@H]2[C@H](COC[C@@H](O)CN2C(=O)Nc2ccccc2)O1 | -13 | -3
COc1cccc(S(=O)(=O)N[C@@H]2C=C[C@@H](CC(=O)NC3Cc4ccccc4C3)O[C@H]2CO)c1 | -2 | 3
O=C(C[C@H]1CC[C@H]2[C@@H](COC[C@H](O)CN2Cc2cccc(C(F)(F)F)c2)O1)NCCc1ccccc1 | -8 | -13
C[C@H]1CN([C@@H](C)CO)C(=O)c2ccccc2-c2ccccc2CO[C@H]1CN(C)C(=O)c1ccccc1 | 21 | 11
CCS(=O)(=O)Nc1ccc2c(c1)C(=O)N(C)[C@H]1CC[C@H](CC(=O)OC)O[C@@H]1CO2 | 2 | 5
O=C(Nc1cccc(Cl)c1)N[C@H]1CC[C@H](CCNC(=O)C2CC2)O[C@@H]1CO | 7 | 14
C[C@@H]1CN([C@@H](C)CO)S(=O)(=O)c2ccc(-c3cccnc3)cc2O[C@H]1CN(C)C(=O)NC1CCCCC1 | 22 | 14
